TRPML1 agonist – activates the human TRPML1 channel | Q9GZU1 | 410,000 tested, 0.12% active | activation, % (test concentration not listed) | TRPML1-expressing cells, Ca2+ dye fluorescence, FDSS; host cell line not named in the record; reference of the full effect not given here | AID 624414; in the data active = activation above about 50%; inconclusive = about 30% to 50%; inactive = below about 30%; further: 0% is about no effect; the text of the record puts the active cut at 80%
Target sequence (Q9GZU1 whole entry, looked up): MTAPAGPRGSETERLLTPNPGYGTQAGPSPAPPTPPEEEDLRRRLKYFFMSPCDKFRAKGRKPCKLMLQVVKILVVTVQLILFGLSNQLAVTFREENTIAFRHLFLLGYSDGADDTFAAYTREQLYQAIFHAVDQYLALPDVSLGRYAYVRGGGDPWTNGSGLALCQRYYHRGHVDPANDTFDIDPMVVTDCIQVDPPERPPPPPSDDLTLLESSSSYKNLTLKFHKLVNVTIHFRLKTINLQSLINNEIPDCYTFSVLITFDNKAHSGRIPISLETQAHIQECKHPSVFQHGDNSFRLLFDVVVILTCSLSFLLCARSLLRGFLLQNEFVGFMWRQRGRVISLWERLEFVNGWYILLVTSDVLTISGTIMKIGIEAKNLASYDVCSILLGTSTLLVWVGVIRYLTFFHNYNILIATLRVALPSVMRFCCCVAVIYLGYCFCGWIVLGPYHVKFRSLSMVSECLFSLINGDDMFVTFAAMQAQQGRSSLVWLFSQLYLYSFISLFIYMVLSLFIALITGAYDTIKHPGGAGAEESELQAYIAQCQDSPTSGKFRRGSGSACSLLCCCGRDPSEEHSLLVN
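Tet-induced TRPML1-DL cells, 1,500 per well, cultured overnight, were loaded with a no-wash Ca2+ dye for 45–90 min. Calcium fluorescence was recorded on the FDSS for 110 s after compound addition, before the EC80 agonist (4 uM 54-4) was added.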
CtBP-E1A inh – inhibitors of CtBP/E1A interaction | AlphaScreen GST-E1A/His-CtBP binding, 1536-well; active compounds read low; control for the full effect not named in the record | activity change, % (concentration not given with the values) | AID 651724 | 340,000 tested, 0.49% active; in the data active means activity change below about -65%; inconclusive means about -30% to -65%; inactive means above about -30%; further: on the % scale 0 is the no-effect control and ±100 the full control effect
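AlphaScreen with 125 nM GST-E1A and 125 nM His-CtBP (5X stocks) in Tris pH 8.0, 300 mM NaCl, BSA, Tween 20, TCEP. Compounds preincubated 2 h at 37 deg C, then glutathione donor/nickel acceptor beads added for 1 h at 37 deg C in dark.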
PINK1 expr mod – PINK1 expression modulation. PINK1 immunofluorescence, high-content cytometry, 24 h. Potency, µM (titrated, usually from 76.6 µM), for the others: at the highest dose activation (PINK1 increase), actives largely listed as activators. 410,000 tested, 0.2% active; active = well fitted activation curve with a large enough effect; inconclusive = small, poorly fitted or top-dose-only effect; inactive = flat fitted curve, though single readings scatter; cell line not stated here;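 further: potency means the concentration at half of the fitted maximal effect; % of control where 0% means no effect; nearly all actives have a fitted effect of over 65% in size; a mitochondrial uncoupler was the plate control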
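Measures PINK1 amount and localization on or inside mitochondria by immunofluorescence. Stable cells get compounds at 5 concentrations for 24 hours before fixation and staining; CCCP controls included.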
D2 potentiator – human D2 receptor positive allosteric modulation | DiscoveRx D2 beta-arrestin cells, luminescence, 90 min; 100% = 57 uM dopamine signal | potentiation, % (no concentration beside the values) | 360,000 tested, 0.23% active | P14416; active = potentiation of 50% or more; inconclusive = 30% to 50%; inactive = 30% or less;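 further: compound concentration not given in the record; tested on top of an EC20 dose of dopamine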
Target sequence (P14416 whole entry, looked up): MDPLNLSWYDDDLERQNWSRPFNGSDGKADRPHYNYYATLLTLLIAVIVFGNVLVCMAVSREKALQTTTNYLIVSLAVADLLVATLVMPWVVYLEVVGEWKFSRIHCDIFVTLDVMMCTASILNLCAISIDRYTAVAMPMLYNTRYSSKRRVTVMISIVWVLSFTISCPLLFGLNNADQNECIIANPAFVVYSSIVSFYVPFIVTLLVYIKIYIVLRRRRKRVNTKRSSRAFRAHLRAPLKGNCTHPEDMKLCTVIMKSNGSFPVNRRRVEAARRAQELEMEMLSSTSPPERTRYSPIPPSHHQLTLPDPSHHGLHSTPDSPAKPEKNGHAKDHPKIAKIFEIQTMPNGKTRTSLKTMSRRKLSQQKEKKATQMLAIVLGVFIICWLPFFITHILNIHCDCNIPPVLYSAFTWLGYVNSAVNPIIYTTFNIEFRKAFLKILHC
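D2 cells co-treated with compound plus 50 nM dopamine (EC20) for 90 min at 37 deg C to detect potentiation. Beta-arrestin recruitment was read as enzyme-fragment luminescence after 1 h at ambient temperature. Full response was set by 57 uM dopamine.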
Six1-Eya2 blk – Six1/Eya2 interaction inhibition. activity change, % (test concentration not listed). AlphaScreen GST-Six1/His-Eya2 binding, biochemical; active compounds read low; control for the full effect not named in the record. 360,000 tested, 0.56% active. Q15475+O00167; in the data active = activity change below about -65%; inconclusive = about -30% to -65%; inactive = above about -30%; further: on the % scale 0 is the no-effect control and ±100 the full control effect
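Six1/Eya2 binding was read as AlphaScreen signal after compounds were pinned into GST-Six1 plus His-tagged Eya2 (5X stock 250/500 nM) in pH 8.0 Tris/NaCl/TCEP buffer, beads added, then incubated 1 h, 37 C, dark.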
D2 agonist – human D2 receptor agonism in beta-arrestin assay. activation, % (concentration not given with the values). DiscoveRx PathHunter D2 beta-arrestin, luminescence, 90 min; 100% = 57 uM dopamine signal. 360,000 tested, 0.084% active. AID 624465. P14416; in the data active = activation above about 40%; inconclusive = about 15% to 40%; inactive = below about 15%; further: compound concentration not given in the record; the text of the record calls up to 30% inactive
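DiscoveRx PathHunter D2 beta-arrestin cells (2,100/well) attached overnight, then compound-stimulated 90 min at 37 C in HBSS/10 mM HEPES/0.1% Tween-20 buffer; beta-galactosidase complementation read by luminescence after 1 h at ambient temperature. Dopamine 57 uM final (EC100) as control.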
* = called active by the depositor; ? = inconclusive; / = no result given; & = joins results of further samples; [ ] = remark or other dose.

SMILES	TRPML1 agonist	CtBP-E1A inh	PINK1 expr mod	D2 potentiator	Six1-Eya2 blk	D2 agonist
COc1ccc(S(=O)(=O)Nc2cc(S(=O)(=O)c3ccccc3)c(O)cc2C)cc1	-0.4	-0.4	1.1%	-6.5	-9.3	1.7
CCCCCOc1ccc(C(=O)Nc2ccc(N3CCOCC3)cc2N2CCOCC2)cc1	0.2	1.6	4.6%	-2.1	-2.8	-2.3
CCCCOc1ccc(S(=O)(=O)NC(=O)NCc2ccc(OCCC)cc2)cc1	0.6	11.5	0.3%[38.3 µM]	6.0	3.1	1.4
COc1cc(/C=C/C(=O)NC2CCCCC2)cc(OC)c1OC	0.7	-4.0	4.1%	-7.3	-2.9	-1.5
CCCCCN(C(=O)CCC(=O)OCC(=O)c1c(C)cc(C)cc1C)c1c(N)n(CCCC)c(=O)[nH]c1=O	0.6	0.0	2.6%	-66.6	-4.7	-1.7
COc1cc(C2c3[nH]c4ccccc4c3CC3COC(=O)N32)cc(OC)c1O (configuration not stated)	-0.1	3.1	-0.7%	-16.0	-5.1	0.6
CCCCn1nc2cc(C(=O)NCc3cc(C(F)(F)F)cc(C(F)(F)F)c3)ccc2c1OC	0.9	7.2	6.6%	-0.8	0.5	0.0
O=C1CC(c2ccccc2)CC(=NCCO)/C1=C(\O)CCCN1C(=O)c2ccccc2C1=O (configuration not stated)	1.6	-0.5	1.0%	-0.4	6.8	1.5
CN(Cc1ccccc1)C(=O)Cn1c(=O)oc2cc(S(=O)(=O)NCc3ccccc3)ccc21	0.4	3.7	3.9%	3.0	-3.5	3.7
CC1(C)CC(=O)C(C=NCCCN2CCOCC2)=C(O)C1	-1.6	7.5	-2.1%	-3.3	7.1	-2.6
CC1CN(S(=O)(=O)c2cccc(C(=O)NCC3COc4ccccc4O3)c2)CC(C)O1 (configuration not stated)	1.3	1.7	4.4%	1.0	-7.7	-0.8
Cc1cc(C)c2c(c1)c(C)cc1nnc(SCC(=O)c3cccs3)n12	1.0	6.0	3.2%	-2.6	-2.9	-2.5
Cc1cc(C)c(C)c(OCC(=O)N2CCN(c3ccccn3)CC2)c1	1.7	-9.3	1.5%	-3.0	0.2	5.8
Cc1ccccc1NC(=O)CC1SC(=NC2CCCCC2)NC1=O (configuration not stated)	-0.6	5.6	-1.6%	-8.1	2.7	1.5
CCOc1ccc(N2CC(C(=O)Nc3ccc(F)cc3F)CC2=O)cc1 (configuration not stated)	1.2	5.9	3.2%	-4.2	3.3	-0.2
COc1ccc(Cl)cc1NC(=S)Nc1ccc(Cl)cn1	-0.2	/	-2.0%	-8.3	-0.3	0.7
C=CCOc1ccccc1CNn1nnnc1N	0.1	6.3	-4.3%[38.3 µM]	-0.7	0.4	0.0
CCOC(=O)C(C)Sc1ncc(OC)c(=O)[nH]1 (configuration not stated)	0.2	5.6	2.3%	-10.2	6.1	-1.4
CCOC(=O)c1nn(-c2cccc(C)c2)c2nnc(Cc3ccc(C)cc3)c(=O)n12	2.1	-7.5	-0.5%	-16.8	-5.6	1.1
Cc1ccc(C(=O)NCCSc2ccc(Cl)cc2)cc1S(=O)(=O)Nc1ccccc1	2.8	-7.6	/	13.4	-5.0	1.1
Cc1cc(=O)[nH]c(N/N=C/c2c(C)nn(-c3ccc(F)cc3)c2Cl)n1	-0.9	-26.7	2.6%	-1.1	-2.1	-6.8
CCOC(=O)Cc1csc(NC(=O)c2ccc(Br)o2)n1	1.7	0.7	1.1%	-7.7	1.6	-1.6
CCCNC(=O)c1ccccc1NC(=O)COc1cccc2c1OC(C)(C)C2	0.7	8.5	1.4%	3.7	1.0	-5.4
CCCCCC(=O)N1C[C@@H](n2cc(C3CC3)nn2)[C@H](O)C[C@@H]1c1ccc(C)cc1	0.2	-15.2	0.1%	-3.0	1.4	-12.3
C/C(=N\Nc1nc2ccccc2[nH]1)c1cccs1	-0.1	-8.7	-1.4%	-2.5	-9.4	4.4
O=C(Nc1ccccc1C(=O)O)c1ncn[nH]1	0.7	-3.5	-0.4%	6.7	?	-2.4
Cc1cccc(C)c1NC(=O)CN(C)C(=O)c1cccc(S(=O)(=O)N2CCN(c3ccc(F)cc3)CC2)c1	-1.0	-0.4	1.7%	-9.1	-7.6	-3.2
CCN1C(=O)[C@@H]2[C@H](C1=O)[C@@H]1C(=O)Nc3ccccc3C(=O)N1[C@@H]2c1ccc(OC)cc1	-0.4	8.7	0.5%	-2.5	12.0	0.8
COc1ccc(-n2nc(C(=O)NCC(=O)N3CCOCC3)c3ccccc3c2=O)c(OC)c1	0.3	-1.5	3.3%	-1.1	7.6	1.9
Cc1nn(-c2ccccc2)c(NC(=O)c2cccs2)c(-c2ccccc2)c1=O	0.6	4.2	-0.6%	-11.1	4.2	-3.0

Part of the list above in order of number of heavy atoms, descending.
SMILES	TRPML1 agonist	CtBP-E1A inh	PINK1 expr mod	D2 potentiator	Six1-Eya2 blk	D2 agonist
Cc1cccc(C)c1NC(=O)CN(C)C(=O)c1cccc(S(=O)(=O)N2CCN(c3ccc(F)cc3)CC2)c1	-1.0	-0.4	1.7%	-9.1	-7.6	-3.2
Cc1ccc(C(=O)NCCSc2ccc(Cl)cc2)cc1S(=O)(=O)Nc1ccccc1	2.8	-7.6	/	13.4	-5.0	1.1
CCCNC(=O)c1ccccc1NC(=O)COc1cccc2c1OC(C)(C)C2	0.7	8.5	1.4%	3.7	1.0	-5.4
O=C(Nc1ccccc1C(=O)O)c1ncn[nH]1	0.7	-3.5	-0.4%	6.7	?	-2.4

Next section.
SMILES	TRPML1 agonist	CtBP-E1A inh	PINK1 expr mod	D2 potentiator	Six1-Eya2 blk	D2 agonist
CCN1CCCC1CNC(=O)c1c(O)c2c([nH]c1=O)CCCC2 (configuration not stated)	0.9	3.9	0.4%	-28.7	1.9	-1.1
Cc1cc2ncc(C(N)=O)cn2n1	-0.6	-0.9	1.3%	2.5	10.7	-1.6
Cc1nc(NS(=O)(=O)c2ccc(Cl)s2)c2c3c(sc2n1)CCCC3	-0.1	/	7.7%	-10.9	-7.6	-1.5
CC(C)(C)NC(=O)C[C@H]1C[C@H](C(=O)N2CCCCC2)[C@@]2(CCc3ccccc3)c3[nH]c4cc(-c5ccco5)ccc4c3CCN2C1=O	3.0	-16.8	10.6%	-5.3	-9.2	-0.6
Fc1ccc(-c2nnc(-c3ccc(F)cc3)o2)cc1	-0.1	3.3	0.5%	-4.6	-1.3	-2.5
CN(C)Cc1csc(NC(=O)Nc2cccc(C(F)(F)F)c2)n1	0.2	3.2	7.6%	-11.5	5.8	-4.7
Cc1cccc(-n2ncc3c2CCCC3NC(=O)Cn2cccn2)c1C (configuration not stated)	1.0	14.6	-2.0%	-13.6	-2.8	-3.6
CCOc1ccc(C(=O)NCC(=O)OCCN2C(=O)c3ccccc3C2=O)cc1OCC	-0.8	2.7	-0.2%	-2.4	3.9	8.3
O=C(N/N=C/c1ccc(Cl)c([N+](=O)[O-])c1)C1CC1	2.0	0.2	1.5%	-1.3	0.2	-5.7
CC(=O)CC(C)(C)Nc1nc2cc([N+](=O)[O-])ccc2o1	-1.0	/	0.5%	-12.3	0.6	-4.1
CC(Nc1nc(-c2ccncc2)nc2ccccc12)c1ccccc1 (configuration not stated)	/	1.6	1.3%	-9.7	-6.9	0.6
c1ccc(C(c2c[nH]c3ccccc23)c2c[nH]c3ccccc23)nc1	0.9	-13.4	0.7%	-10.5	-18.6	-0.9
CC1(C)N=C(SCC(=O)Nc2ccc(Cl)cc2)C(c2ccc(Cl)cc2)=N1	3.4	-10.5	2.0%	-2.7	1.0	-3.7
COc1cccc(CNc2nc(NCC3CC3)nc3ccsc23)c1	1.9	-1.0	?	-20.4	-2.9	-1.2
COC(=O)COc1ccc(C(=O)Cn2c(NCCCO)nc3ccccc32)cc1	-0.3	-0.6	-0.9%	-6.3	1.4	-9.8
O=C(C1CCCCC1)N1CCN=C1SCc1cccc([N+](=O)[O-])c1	-0.1	-11.6	1.5%	-10.1	-15.6	-3.0
O=C(Nc1ccccn1)c1cccc(S(=O)(=O)N2CCCCC2)c1	-0.4	-4.4	1.8%	16.3	-3.8	-3.0
CC1=C(C(=O)Nc2ccccc2)C(c2ccc(C)cc2)N=C(Nc2nc3ccccc3o2)N1 (configuration not stated)	0.1	7.4	22.1%[38.3 µM]	0.0	0.5	1.8
Clc1ccc2nc(CN3CCCCCC3)cn2c1	0.4	-3.3	-3.3%	-14.2	8.3	-1.4
COc1cccc(CN(C)C(=O)c2ccc(NS(=O)(=O)c3ccc(F)cc3)cc2)c1OC	1.1	14.0	-1.8%	-20.5	7.7	-6.3
Cc1oc(-c2ccccc2)nc1C(=O)OCC(=O)NCc1ccc(Cl)cc1	0.6	5.7	4.6%	-1.3	-1.5	-0.7
O=C(/C=C/c1ccco1)Nc1ccc2c(c1)OCCO2	0.5	7.3	0.6%	-5.9	-4.2	-4.0
CCn1c(SCC(=O)c2ccc(C)cc2)nnc1-c1ccoc1C	-0.6	-0.4	-0.4%	-8.5	-1.4	-4.4
O=C(O)C1CCCCC1C(=O)Nc1nc(-c2ccc(Cl)s2)cs1 (configuration not stated)	1.3	-13.6	1.2%	-3.8	-21.5	-7.0
CSc1cccc(NC(=O)C(=O)NCc2ccccc2)c1	2.9	13.4	18.3%	-3.7	5.0	2.6
Cc1cc(C)cc(Cn2c(C)c(C(=O)N(C)Cc3ccc(F)cc3)sc2=O)c1	-0.5	0.8	0.5%	-3.2	-2.2	6.2
O=C(O)c1ccc2c(c1)C(=O)N(Cc1ccc3c(c1)OCO3)C2=O	-0.1	-3.5	/	-8.6	7.0	-0.4
CCN1CCN(S(=O)(=O)c2ccc3c(c2)OCCO3)CC1	0.3	-9.0	-2.7%	-6.9	4.5	-2.6
COc1cccc(NC(=S)N(CCN(C)C)C(C)c2ccncc2)c1 (configuration not stated)	-0.9	/	1.1%	-9.4	-1.2	-4.7
CCOC(=O)N1CCN(c2ncnc3scc(-c4ccc(Cl)cc4)c23)CC1	2.6	/	3.0%	13.2	-7.4	6.7
C(=C\c1ccc2ccccc2n1)/c1ccccc1	0.9&-0.4	/	6.0%&7.5%	-1.3	3.0	-1.8
COc1cccc(C2(CSc3nnc(-c4cc(OC)c(OC)c(OC)c4)o3)OCCO2)c1	-0.5	-1.2	-0.3%	9.3	-5.9	0.0
O=C1OCC(CO)(CO)N=C1NNc1cc(Cl)ccc1Cl	0.6	-2.7	0.8%[38.3 µM]	-29.7	-3.1	-7.6
Cc1cc(C)c(S(=O)(=O)N2CCN(C(=O)N3CCCCC3)CC2)c(C)c1	0.1	-10.4	-1.4%	0.6	-2.0	-2.5
O=C(NCc1ccc2c(c1)OCO2)c1cccs1	0.3	4.9	-2.2%[38.3 µM]	-2.9	-2.2	-2.9
Nc1ccc2nc3n(c(=O)c2c1)CCC3	-0.6	-30.0	4.6%	-3.4	0.3	-1.5
Cc1cccc(-c2nc(CS(=O)CC(=O)NCC3CCCO3)c(C)o2)c1 (configuration not stated)	-0.9	-8.2	0.0%	-4.6	-0.9	2.2
O=C(/C=C/c1ccccc1)N/C(=C/c1ccccc1)C(=O)N1CCCCC1	2.0	2.9	-1.9%	-8.0	3.4	-0.1
CS(=O)(=O)N(CC(=O)N1CCN(c2ccccc2)CC1)c1ccc(Cl)c(C(F)(F)F)c1	0.4	-13.2	0.3%	-3.5	-3.6	2.1

High-throughput results as filed in PubChem.
